Screening results from PubChem.
HSD17B inh – blocks hydroxysteroid 17-beta dehydrogenase activity; Q99714; recombinant HSD17B10, NADH fluorescence kinetic; many of its hits are not listed in these tables; actives 7.6% (n = 75,000); Potency, µM (series often up to 57.1 µM), for the others: top-dose activity change, negative = inhibition, most hits filed as inhibitors; active = well fitted inhibition curve with a large enough effect; inconclusive = small, poorly fitted or top-dose-only effect; inactive = no such curve, though single readings can be large or run the other way;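 also: the protocol describes HADH2 (HSD17B10) and not the HSD17B4 of the title; nearly all actives have a fitted effect of over 70% in size; most hits overshoot -100% by far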
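Enzyme plus compound, 15 min room temperature; substrate mix added (NAD+ 1 mM, beta-hydroxybutyryl-CoA 90 uM final); plates read kinetically for NADH fluorescence. HADH2 was His-tagged, E. coli-derived, 20 nM.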
The depositor's hits bear a star; ? = inconclusive; [ ] = dose if it differs, or a comment. % is scaled to controls: 0 for no effect and ±100 for the full control effect; potency is read from the fitted curve at half-maximal effect. This is a subset; the hit share may differ from the screen's.

SMILES	HSD17B inh
COc1ccc(C2=NOC(C(=O)NCc3ccco3)C2)cc1OC (stereo not drawn)	2.6%
Cc1cc(C)cc(NC(=O)CCn2ccnc2C)c1	2.5%
Cc1c(Cl)cccc1NC(=O)CSc1nnc(C)n1-c1ccccc1	4.5%
O=C(O)c1cc(S(=O)(=O)NCC2CCCO2)ccc1Cl (stereo not drawn)	-3.4%
CCS(=O)(=O)N1CCN(C(=O)c2cc(OC)cc(OC)c2)CC1	12.2%
CCc1nnc(NC(=O)Cc2ccc(OCc3c(C)noc3C)cc2)s1	-4.5%
CC(=O)N1c2c(cc(Br)cc2S(=O)(=O)N2CCN(c3ccccn3)CC2)CC1C (stereo not drawn)	9.0%
[Li+]	3.7%
COCCCNc1nc2c([nH]1)c(=O)[nH]c(=O)n2C	4.1%
Cc1cc(C)n(-c2ccc(C(=O)OCc3nnc(-c4ccccc4)o3)cc2)n1	-1.4%
Cc1nnc(-n2cnc3ccccc32)c2ccccc12	6.1%
COc1cccc(N(C(C)=O)c2nc(C)cc(C)c2C#N)c1	9.1%
COC(=O)c1cc2ccc(OC)c(OC)c2c(=O)s1	-11.1%
O=C(OCc1csc(-c2ccccc2)n1)c1cccs1	-11.7%
COc1ccc(-c2ccc(-c3noc(-c4cccc(OC)c4)n3)c(OC)n2)cc1	3.16µM*
CCCCC(=O)Nc1ccc(NC(=O)c2ccc3c(c2)OCO3)cc1OC	-9.7%
CCOc1ccc(Cn2nnc(C(=O)NCc3ccccc3)c2N)cc1	7.1%
NC(=O)NC(=O)CSc1cccc(C(F)(F)F)c1	2.1%
O=C(CSc1nnc(C2CCCCC2)n1Cc1ccccc1)NCc1ccco1	?
Cc1nn(C(C)C(=O)NCC2CCCO2)c(=O)c2cc3occc3n12 (stereo not drawn)	7.9%
COC(=O)CN1C(=O)C(C)(C)Oc2ccc(C(=O)NC3CC3)cc21	11.0%
C/C=C(\C)c1nnc(NC(=O)OCC)s1	-26.2%
CC(C)(C)C(=O)Nc1ncc(C(F)(F)F)cc1Cl	7.8%
CCc1ccc(OCC(O)CN2CCN(c3ccccc3)CC2)cc1 (stereo not drawn)	-0.1%
COc1ccc(N2CCN(C(=O)c3c(-c4ccccc4)noc3C)CC2)cc1	2.3%

Structural class, the compounds so far with sulfur
SMILES	HSD17B inh
Cc1c(Cl)cccc1NC(=O)CSc1nnc(C)n1-c1ccccc1	4.5%
O=C(O)c1cc(S(=O)(=O)NCC2CCCO2)ccc1Cl (stereo not drawn)	-3.4%
CCS(=O)(=O)N1CCN(C(=O)c2cc(OC)cc(OC)c2)CC1	12.2%
CCc1nnc(NC(=O)Cc2ccc(OCc3c(C)noc3C)cc2)s1	-4.5%
CC(=O)N1c2c(cc(Br)cc2S(=O)(=O)N2CCN(c3ccccn3)CC2)CC1C (stereo not drawn)	9.0%
COC(=O)c1cc2ccc(OC)c(OC)c2c(=O)s1	-11.1%
O=C(OCc1csc(-c2ccccc2)n1)c1cccs1	-11.7%
NC(=O)NC(=O)CSc1cccc(C(F)(F)F)c1	2.1%
O=C(CSc1nnc(C2CCCCC2)n1Cc1ccccc1)NCc1ccco1	?
C/C=C(\C)c1nnc(NC(=O)OCC)s1	-26.2%

More results
SMILES	HSD17B inh
COc1cc(C(=O)Nc2nncs2)cc(OC)c1OC	-7.1%
CCc1ccc(CCC(=O)Nc2ccc(C)c(C)c2)o1	-2.2%
c1csc(-n2nc3ccccc3n2)c1	-2.1%
CSc1nc(SCC(=O)NCc2ccco2)c2c3c(sc2n1)COC(C)(C)C3	-6.1%
CON(C)C(=O)c1nnc2c(n1)[nH]c1ccccc12	10.9%[11.4 µM]
Cn1c(=O)oc2cc(S(=O)(=O)NCCC(=O)NCCc3ccccc3)ccc21	2.4%
O=C(O)[C@@H]1[C@@H](C(=O)Nc2ccccc2)[C@@H]2C=C[C@@H]1O2	-6.4%[11.4 µM]
COc1ccc(NC(=O)N2CCC(NC(=O)c3ccco3)CC2)cc1	4.7%
Cc1cc(Br)ccc1NC(=O)CNC(=O)CSc1n[nH]c(N)n1	2.3%
CCC(=O)N1CCc2cc(Br)cc(S(=O)(=O)C3(C(=O)OC)CC3)c21	5.2%
Cc1ccc(-n2cc3c(=O)n(C)c(=O)n(C)c3c2)cc1C	-2.7%
COC(=O)c1ccc(-n2nnnc2SCC(=O)N2CCCCC2)cc1	-4.1%
Cc1nc(N2CCN(C(c3ccccc3)c3ccccc3)CC2)[nH]c(=O)c1C	5.5%
CC1CN(CC(O)COc2ccc(C(C)C)cc2)CC(C)O1 (stereo not drawn)	11.3%
CC(=O)N(CC1CCCO1)c1nnc(-c2ccccn2)s1 (stereo not drawn)	136.7%[activator]
CCOc1ccc2nc(NCCO)[nH]c2c1	0.8%
CC(NC(=O)c1ccccc1)C(=O)NC1=NCCS1 (stereo not drawn)	8.1%
Cc1cc(C)c2c(CC(=O)N(CCC#N)Cc3cccnc3)coc2c1	1.4%
Nc1nc(CSc2ncn(-c3ccccc3)n2)cs1	1.7%
CCN1C(=O)[C@H]2[C@H]3[C@H](O)[C@H](O)C/C(=N/OC[C@@H](O)COCc4ccco4)[C@H]3CC[C@@H]2C1=O	-0.6%[11.4 µM]
CN1CCc2ccccc2[C@@H]1Cc1ccccc1NC(=O)c1sc2ccccc2c1Cl	8.6%[11.4 µM]
COc1cc(C(=O)N2CCN(c3ncnc4sc(C)c(C)c34)CC2)cc(OC)c1OC	2.2%
O=C(NCC1CCCO1)C1CCN(C(=O)c2ccc(Cl)cc2)CC1 (stereo not drawn)	21.1%
CCOC(=O)c1[nH]c2ccccc2c1NC(=O)C1CCCCC1	6.0%
CCCN(c1ccc(OCC)cc1)S(=O)(=O)c1ccc2c(c1)CCN2C(=O)CCC(=O)O	1.5%

(next part)
SMILES	HSD17B inh
CNC(=O)C1C2C=CC3(O2)C1C(=O)N(CCOC)C3C(=O)NCc1ccc(OC)cc1 (stereo not drawn)	14.1%
CC(=O)Nc1ccc(C(=O)Nc2ccc3c(c2)OCO3)cc1	-8.8%
Cc1oc2c(c1C(=O)NC(Cc1c[nH]c3ccccc13)C(=O)O)CCCC2 (stereo not drawn)	-2.1%
NC(N)=NC(N)=Nc1ccc(S(N)(=O)=O)cc1	-4.6%[11.4 µM]
CCOC(=O)CNc1c(N2CCN(c3ccccn3)CC2)c(=O)c1=O	2.8%
Cc1c(N=Cc2nc3ccccc3[nH]2)c(=O)n(-c2ccccc2)n1C	-3.2%
O=c1[nH]c(CN2CCc3ccccc3C2)nc2ccccc12	?
CCOC(=O)c1c(C)n(C)c2cc(Br)c(C(=O)OC)cc12	2.7%
CC(Oc1ccc(Cl)cc1Cl)C(=O)NCCCN(C)C (stereo not drawn)	2.4%
Cc1cccc(CNc2ccnc(-c3cccc(NS(C)(=O)=O)c3)n2)c1	?
COC(=O)NC(CC(C)=O)c1ccc(Cl)cc1 (stereo not drawn)	8.3%[11.4 µM]
COc1ccc(F)cc1S(=O)(=O)NC(Cc1ccccc1)C(N)=O (stereo not drawn)	9.1%
NC(=O)c1cccc2c1C(=O)N(C1CCCCC1)C2	-9.8%
Cc1onc(-c2c(F)cccc2Cl)c1C(=O)OCN1C(=O)c2ccccc2C1=O	10.8%
CCc1nnc(NC(=O)Nc2ccc(OC)cc2)s1	5.6%
O=c1cnc2cnc(N3CCOCC3)nc2n1C1CC1	-1.7%
O=C(NC1c2ccccc2-c2ccccc21)N1CCOCC1	6.2%
COc1cc(C(=O)Nc2ccccc2N2CCN(S(C)(=O)=O)CC2)cc(OC)c1OC	5.3%
Cc1cccc(-c2c3c(=O)n(C)c(=O)n(C)c3cn2C(C)(C)C)c1	11.1%
CCOCCCNC(=O)Cn1cc2c(n1)CCCCC2	10.3%
CCOc1cc(C(=O)NC(C)c2ccncc2)cc(OCC)c1OCC (stereo not drawn)	-1.1%
COC(=O)c1sccc1NC(=O)c1ccc(OC)cc1	-14.0%
CCn1c(SCC(N)=O)nc2ccccc2c1=O	-0.4%
COc1ccccc1-c1cc(NCc2ccccc2)ncn1	?
COc1ccc(S(=O)(=O)NCCSCc2ccco2)cc1Cl	?

Remaining list, next part
SMILES	HSD17B inh
O=C(COc1ccccc1)N1CCN(C(=O)c2cccs2)CC1	1.9%
O=C(Nc1ccc2c(c1)OCO2)c1ccc(COc2ccc3c(c2)CCC3)o1	?
CC(C)Cn1c2c(c(O)c(C(=O)Nc3ncccc3O)c1=O)CCCC2	-14.4%
CCOc1ccc(N2CC(=O)N/C2=N\c2nc(C)cc(C)n2)cc1	-5.1%
O=C(c1cc(-c2ccco2)on1)N1CCOCC1	-17.5%
Oc1ccc(-c2[nH]ncc2-c2cccc3cccnc23)c(O)c1	?
O=C(Nc1ccccc1)N1CCN2C(=O)c3ccccc3C12c1ccccc1 (stereo not drawn)	-10.9%
CC1CCC(NC(=O)Cn2cc3c(n2)CCCC3)CC1 (stereo not drawn)	-2.3%
COC(=O)C1C2C=CC3(CN(c4cccc(Cl)c4)C(=O)C13)O2 (stereo not drawn)	-1.9%
Cc1cccc(N(CC(=O)NC2CCCCC2)C(=O)c2c(C)noc2C)c1	0.0%
O=C(c1ccccc1OCc1ccccc1Br)N1CCN(c2ncccn2)CC1	-26.4%
Nc1cc(=O)nc(SCC(=O)NC2CCCCC2)n1-c1ccccc1	2.3%
Cc1cccc(N2CCN(c3nc4ccc(Cl)cc4n4cnnc34)CC2)c1C	25.1µM*
COc1ccc(C2CC(C(F)(F)F)n3nc(C(=O)NCCCn4ccnc4)cc3N2)cc1OC (stereo not drawn)	9.0%
Cc1ccc(S(=O)(=O)Nc2ccccc2C(N)=O)cc1	31.6µM*
CCSCCCC(=O)O	1.3%[11.4 µM]
COc1ccc(NS(=O)(=O)c2ccc(Br)s2)cc1OC	0.6%
CCOC(=O)c1cnc(SCc2ccc(C)cc2)nc1N	-13.0%
COC(=O)c1ccccc1NC(=O)CN(Cc1ccccc1)S(C)(=O)=O	-11.2%
O=C(c1ccc(F)cc1)N1CCN(c2ncccn2)CC1	2.0%
CN1CCn2c1nc(N1CCCCC1)nc2=O	6.2%
COc1ccc(/C=C/NC(=O)c2ccc(OC)cc2)cc1	7.1%[11.4 µM]
O=C(CCS(=O)(=O)c1ccc(Br)cc1)N1CCN(c2ccccc2)CC1	-5.4%
O[C@@H](COc1ccc(Cl)cc1Cl)CN1CCCC1	0.9%[11.4 µM]
CCOC(=O)c1cc(C)sc1NC(=O)C1CCC1	-15.9%

(next part)
SMILES	HSD17B inh
COc1cc(S(=O)(=O)Nc2ccccc2C)ccc1Cl	5.5%
CC(C)(C)c1nnc2sc(SC/C(O)=C(\C#N)c3nc4ccccc4[nH]3)nn2c1=O	-26.1%
COC(=O)[C@H](C)[C@H]1C[C@]1(C)[C@H](NC(=O)OCc1ccccc1)c1ccccc1	-4.8%
O=C(c1cccs1)N(Cc1ccccn1)Cc1ccco1	3.1%
COc1cc(-c2noc(-c3cccc(Cl)c3)n2)cc(OC)c1OC	5.0%
CCCn1c(C)nc2c(NCC(C)(C)CN(C)C)nc(C)nc21	4.3%
Cc1nn(-c2ccc(S(=O)(=O)O)cc2)c(O)c1N=Nc1ccc(-c2ccc(N=Nc3ccc4c(S(=O)(=O)O)cc(S(=O)(=O)O)c(N)c4c3O)c(O)c2)cc1O.[Cu].[Cu]	1µM*
COc1ccc(Cc2nnc(SCc3nc4ccccc4c(=O)[nH]3)o2)cc1	4.9%
COC(=O)CCC(C)C1CCC2C3C(C[C@H](O)C12C)C1(C)CC[C@@H](O)CC1C[C@H]3O (stereo partly drawn)	-15.8%
COc1ccccc1NC(=O)CSc1ccc2nnc(-c3ccncc3)n2n1	4.7%
CO[C@H]1COC(=O)[C@H](C)COC(=O)[C@H](C)NC(=O)C/C=C\[C@H]1C	0.8%[11.4 µM]
CS(=O)(=O)N(Cc1nnc(-c2cccs2)o1)c1ccc(Cl)cc1F	-8.2%
COc1ccc(N(CC(=O)N2c3ccccc3CC2C)S(=O)(=O)c2c(C)noc2C)cc1 (stereo not drawn)	-2.0%
O=C(Nc1ccccc1C(=O)NCCN1CCOCC1)c1ccco1	3.3%
CCCOC(=O)CN1C(=O)c2ccc(C(=O)OCCC)cc2C1=O	-6.5%
C=CCOC(=O)C(C#N)c1nc2ccccc2nc1N1CCN(Cc2ccc3c(c2)OCO3)CC1 (stereo not drawn)	1.7%
Cc1nc(NCc2ccccc2)c2nc(-c3ccccc3)n(CCN3CCCC3)c2n1	25.1µM*
CCS(=O)(=O)C(=C(Nc1ccc(OC)cc1)Nc1ccc(OC)cc1)S(=O)(=O)CC	2.8%
COc1ccc(CNC(=O)CS(=O)Cc2nc(-c3ccccc3C)oc2C)cc1 (stereo not drawn)	-10.5%
COC(=O)c1cn(CCOc2ccccc2)c2ccccc12	-7.1%
COc1ccc2cc(CCNC(=O)C3CCCC3)c(=O)[nH]c2c1	?
CN(C)CC/C=C1\c2ccccc2CSc2ccccc21	-0.6%[25.6 µM]
CN(C)c1ccc(NC(=O)CSc2nc3c(c(=O)[nH]2)CCCC3)cc1	-0.9%
Cc1nn(-c2ccccc2)c(Cl)c1C(=O)Nc1nnc(C2CCCC2)s1	-11.5%
COCc1c(C(=O)OCC(=O)c2c(N)n(CC(C)C)c(=O)n(C)c2=O)oc2ccccc12	4.0%

(further entries)
SMILES	HSD17B inh
Cc1nc2cc(NC(=O)Nc3nccs3)ccc2n1C	4.6%
CCC(C)NC(=O)CN(c1ccc(OC)cc1)S(=O)(=O)c1ccc(NC(C)=O)cc1 (stereo not drawn)	-8.2%
COc1ccc(N2CCN(S(=O)(=O)c3ccc(C(=O)NCc4ccco4)cc3)CC2)cc1	-0.7%
CCc1nnc(NC(=O)c2cccc(OC)c2)s1	4.6%
CCN(CC)CCCNS(=O)(=O)c1ccc(OC)cc1	4.2%
CC(=O)c1c(C(C)=O)c(C)n(Cc2ccccc2)c1C	-3.1%
CCCCOP(=O)(c1ccc(N(C)C)cc1)C(O)c1ccncc1 (stereo not drawn)	-1.6%
